NPYLR7 ag: activates Aedes aegypti NPYLR7 receptor; 270,000 compounds, 0.15% hits; AID 1259423; HEK293T NPYLR7/Galpha15, GCaMP6s calcium fluorescence; activation, % at 10 µM; in the data active = activation above about 40%;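 note: 0% = vehicle and 100% = reference agonist at the receptor; some compounds past the cut are filed as inactive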
NPYLR7 ag max-min: also measured in NPYLR7 ag; calls as there; activation, %; measured here: Max-Min RFU normalised activation; some inactives read as strong as hits;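 span of the calcium signal over five minutes; 0% = vehicle and 100% = native peptide agonist; compound fluorescence can raise it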
Active calls of the source: *; & = joins results of further samples.

Results follow in this order: NPYLR7 ag, NPYLR7 ag max-min
1) CC(C(=O)N1CCCC(C(N)=O)C1)N1CCCC(c2ccncn2)C1 (stereo unspecified)
  0, -4
2) COc1cccc(CN2CC(C(=O)NCCn3ccc(C)n3)CCC2=O)c1 (stereo unspecified)
  2, 1
3) CCCn1c(=O)c2c(nc3n2CC(C)CN3c2ccc(OC)cc2OC)n(C)c1=O (stereo unspecified)
  1, -1
4) O=C(NC1CCCCC1)c1cc(S(=O)(=O)N2CCOCC2)ccc1Cl
  -9, -12
5) COc1ccccc1Oc1cc(N2CCN(c3ccccc3)CC2)ncn1
  10, 14
6) Cc1c(C(=O)Nc2c(N)nc(SCc3cccc(Cl)c3)[nH]c2=O)cccc1[N+](=O)[O-]
  -1, -1
7) O=C(Cc1ccccc1)N1CCC(Cc2ccc(-c3ccccc3)cc2)CC1
  7, 22
8) COCCNc1cc(C)nc2c(-c3ccccc3Cl)c(C)nn12
  0, 10
9) COCC1CCCN(C(=O)c2ccc(-c3cc4ccccc4nc3OC)nc2)C1 (stereo unspecified)
  6, 6
10) CC(NC(=O)CCc1c[nH]c2ccccc12)c1cn2ncsc2n1 (stereo unspecified)
  -5, -8
11) CC1(C)O[C@@H]2C[C@@](OCc3ccccc3)(C(=O)NCC3CCCO3)CC(OCc3cccc(F)c3F)[C@@H]2O1 (stereo partly specified)
  6, 14
12) CCO[C@H]1COC[C@@H]1NC1CCN(Cc2ccccn2)CC1
  12, 9
13) Cc1cc(C(=O)N2CCN(C(C)C)CC2)c2cccc(C)c2n1
  1, -1
14) CNC(=O)COc1ccc(-c2cccc(-n3cccn3)c2)cc1
  4, 1
15) COc1ccc(C=CC(=O)N(C)C(C)c2nc3ccccc3s2)cc1 (stereo unspecified)
  6, 7
16) COc1cc2c(cc1/C=C/C(=O)N1CCc3ccccc31)OC(C)C2 (stereo unspecified)
  -4, -7
17) CCN(Cc1ccccc1)C(=O)COC(=O)c1cccc(O)c1
  6, 1
18) CCN(CC)CCNC(=O)c1cc2c(=O)n3cccc(C)c3nc2s1
  4, 0
19) CC(Cc1cccs1)Nc1nc(-c2cccnc2)nc2c1cnn2C (stereo unspecified)
  0, 3
20) Cc1ccc(-n2nc(C(=O)NC3CC3)c(=O)n(Cc3ccccc3Cl)c2=O)cc1
  12, 15
21) CCON=C(C)c1ccc(Nc2c(C)n(C)n(-c3ccccc3)c2=O)cc1
  -3, -4
22) COc1cccc([C@@H]2CCN(Cc3cnc(-c4ccccn4)nc3)C[C@H]2O)c1
  2, 1
23) O=C(CN1C(=O)c2ccccc2C1=O)NCC12CC3CC(CC(C3)C1)C2
  4, 1
24) COc1ccc(-c2csc(=Nc3ccccc3C(F)(F)F)n2NC(=O)C(C)Oc2ccc(Cl)cc2C)cc1 (stereo unspecified)
  -2, -10
25) CCOC(=O)N1CCN(Cc2ccc3c(c2)CN(C(=O)c2noc4c2CCCC4)CCO3)CC1
  -4, -12
26) CC(C)C1=CC2=CC[C@H]3[C@](C)(CO)CCC[C@]3(C)C2CC1 (stereo partly specified)
  -11, -14
27) CCC(CC)C(=O)N(Cc1cccc(F)c1)Cc1cc(NC(=O)c2cccs2)ccc1N(C)C
  23, 16
28) COc1ccccc1NC(=O)N(Cc1ccccc1)CC1CC(c2ccc(Cl)o2)=NO1 (stereo unspecified)
  18, 20
29) COCCCN1C(=O)/C(=C/c2ccccc2F)SC1=S
  -4, -9
30) CCc1ccc(-c2nc(SC3CCCCC3=O)n[nH]2)cc1 (stereo unspecified)
  -5&1, -7&0
31) Clc1ccc(OCc2ccccc2)c(CNc2nn[nH]n2)c1
  -15, -19
32) COC(=O)CSc1ncc(-c2ccc(F)cc2)c(C2CCCN(C(=O)c3cccc(F)c3)C2)n1 (stereo unspecified)
  19, 11
33) CCOC(=O)CCCSc1nnc(NC(=O)CCC(=O)OCC)s1
  -4, 10
34) O=C(Cc1cccc2ccccc12)NN1C(=O)C2C(C1=O)C1C=CC2C12CC2 (stereo unspecified)
  7, 5
35) COc1ccc(C)cc1NC(=O)c1nn(-c2ccccc2C)c(=O)cc1OC
  16, 15
36) Cc1noc2nc(C3CC3)cc(C(=O)N(C)Cc3ccc4c(c3)OCO4)c12
  10, 9
37) Cc1noc(CSCC(=O)Nc2ccnn2C(C)C(C)C)n1 (stereo unspecified)
  4, -8
38) O=C(N=C1N=C2C=CC(Br)=CN2Cc2ccccc21)c1ccco1
  20, 20
39) COc1cc(NC(=O)CCN2CCCCC2C)cc(OC)c1OC (stereo unspecified)
  5, 2
40) COc1ccc(C2NC(=O)c3ccccc3N2)c(OC)c1OC (stereo unspecified)
  3, -1
41) Cc1nc(N)nc(C)c1CC(=O)N1CCCC(O)(CN(C)C)C1 (stereo unspecified)
  5, 2
42) CC1(Cc2ccc3c(c2)OCO3)C(=O)Nc2ccc(S(=O)(=O)NC3CCCCC3)cc21 (stereo unspecified)
  -4, -8
43) C[C@H](C(=O)NCCc1ccccc1)N1Cc2ccc(-c3ccnn3C)nc2C1=O
  -12, -15
44) CC(=O)c1ccc(S(=O)(=O)NCc2ccc3c(c2)OCO3)cc1
  -3, -3
45) O=C(c1ccc(Cl)cc1)N1CCCN(c2nc3ccccc3nc2-c2ccccc2)CC1
  4, 4
46) CC(C)c1ccccc1OCc1nc(C(=O)Nc2ccccc2)cs1
  28, 38
47) CNC(=O)[C@@H]1CN2CCN(C(=O)c3csc(-c4cccs4)n3)C[C@@H]2[C@H]1c1ccccc1
  3, 9
48) O=C(NCc1ccc(OC(F)F)cc1)c1cccc2ccccc12
  9, 2
49) Cc1nnsc1C(=O)NCc1ccc(-c2ncc(-c3ccc(F)cc3)[nH]2)cc1
  2, -5
50) O=C(c1ccc(Cl)cc1)N1CCCC2(C1)C(=O)Nc1ccccc12 (stereo unspecified)
  -2, -4
51) COC(=O)c1cccc(N2C(=O)/C(=C/c3ccc(Cl)cc3)C=C2c2ccccc2)c1
  6, 7
52) Cc1ccccc1C(=O)Nc1c2c(nn1CC(=O)NCc1ccco1)CSC2
  -6, 1
53) CCCCSc1nnc(Cn2c(=O)sc3ccccc32)n1C
  1, 3
54) N#Cc1cccc(C(=O)N2C3CCC4(CC3)OC(=O)N(Cc3ccccc3)CC24)c1 (stereo unspecified)
  9, 16
55) COc1cc(-c2nc3cc(Cl)ccc3c(=O)n2Cc2ccccc2)cc(OC)c1OC
  -1, -5
56) CCCCCn1c(N2CCN(Cc3ccccc3C)CC2)nc2c1c(=O)[nH]c(=O)n2C
  -9, -12
57) C=C(C)Cn1c(C(=O)N2CCN(S(=O)(=O)CC34CCC(CC3=O)C4(C)C)C(C)C2)cc2ccoc21 (stereo unspecified)
  1, 8
58) O=C(NCc1ccccn1)c1c2c(nn1C1CCS(=O)(=O)C1)CCC2 (stereo unspecified)
  -11, -14
59) COc1cn(CC(=O)NCc2ccc(F)cc2)c(CN2CCCCCC2)cc1=O
  -1, -3
60) COc1ccc(CNc2nc3c(-c4cccc(C)c4)nnn3c3ccccc23)cc1
  -8, -15

The list goes on:
# | SMILES | NPYLR7 ag | NPYLR7 ag max-min
61 | COc1cccc(C(=O)N2CCSC23CCN(C(=O)Nc2ccc(C)cc2)CC3)c1 | 6 | 16
62 | Cc1ccc(N2C(=O)N(CC(=O)Nc3ccc(S(=O)(=O)N4CCCCCC4)cc3)C(=O)C2C)cc1 (stereo unspecified) | 5 | 9
63 | COC(=O)C(NCCN1CCCCC1)C(C)(C)C (stereo unspecified) | 3 | 0
64 | Cc1ccsc1CN(C)Cc1c(C)nn(C)c1N1CCOCC1 | 3 | 0
65 | Brc1ccc(Cc2nnnn2CCn2cccn2)cc1 | -1 | -3
66 | CCN=c1scc(C)n1N=Cc1ccc(Br)cc1 | -2 | -1
67 | Cc1ncc([N+](=O)[O-])n1CC(O)CCl (stereo unspecified) | -2&-2 | -3&-6
68 | CC(C)CN(Cc1cccn1Cc1ccc(F)cc1)C(C)c1ccccc1 (stereo unspecified) | 5 | 14
69 | CN(C)CC(NCc1cn[nH]c1-c1ccc(F)cc1)c1ccccc1 (stereo unspecified) | 2 | 11
70 | Cc1ccc(SCC(F)(F)F)c(NC(=O)C2CCOCC2)c1 | 1 | 825
71 | CSc1cccc(NC(C(N)=O)c2ccccc2)c1 (stereo unspecified) | -6 | -6
72 | O=C1CC2(CCCC2)C(=O)N1CN1CCc2ccccc2C1 | 3 | 3
73 | Cc1ccc(C(=O)Nc2nc3c(s2)CCC3C(=O)NCc2cccs2)cc1 (stereo unspecified) | 7 | 1
74 | CCCC1CCC(c2ccc(-c3noc(-c4cccc([N+](=O)[O-])c4)n3)cc2)CC1 (stereo unspecified) | -2 | -5
75 | Cc1c[nH]c(CN2CCCC(N3CCCC3=O)C2)c(C)c1=O (stereo unspecified) | 5 | 3
76 | CCCCOC(=O)C1=C(C)NC2=C(C(=O)CCC2)C1c1ccc(OCC)c(OC)c1 (stereo unspecified) | -3 | -4
77 | O=C1c2ccccc2C(=O)c2cc(N3CCCCC3)ccc21 | -4 | -8
78 | Cc1nn(-c2ccc(N3CCOCC3)nn2)c2c1C(c1cccc(O)c1)CC(=O)N2 (stereo unspecified) | -14 | -22
79 | O=C(c1cccc(Br)c1)N1CCCc2c1[nH]c1ccccc21 | -10 | -17
80 | COc1ccc(C(O)c2ncc(-c3cccc(OCc4ccccc4)c3)[nH]2)cc1F (stereo unspecified) | -2 | -4
81 | Cc1ccc(NC(=O)CC2Sc3ccc(C(F)(F)F)cc3NC2=O)cc1 (stereo unspecified) | -3 | -5
82 | CC(C)CCOc1ccc(C(=O)Nc2cc(Cl)ccc2C(N)=O)cc1 | 5 | 2
83 | CCn1cncc1CNC(=O)c1cc2n(n1)CCCN(C)C2 | 0 | 0
84 | Cn1c(=O)n(CCN2CCOCC2)c(=O)c2c1nc1n(-c3ccccc3)c(-c3ccccc3)cn21 | 2 | -2
85 | O=C1CCC(C(=O)N2CCN(c3ccccc3)CC2)CN1CCc1ccccn1 (stereo unspecified) | 7 | 1
86 | Cc1cccc(C)c1Cn1c(C)c(C(=O)NCc2ccc(F)cc2)sc1=O | 13 | 6
87 | Cc1cn2nc(Sc3ccc4c(c3)OCCCO4)sc2n1 | 0 | -1
88 | Cc1ccccc1-c1cc(O)c2c(c1)CN(Cc1cn(C)nc1C)CCO2 | 8 | 6
89 | CCN(CC)c1ccc(C2C(C#N)=C(C)NC3=C2C(=O)CC(C)(C)C3)cc1 (stereo unspecified) | 11 | 12
90 | Nc1nnc(CCS(=O)(=O)c2ccc(Cl)cc2)s1 | -8 | -7
91 | CCc1ccc(C(O)c2ncc(-c3ccccc3C(F)(F)F)[nH]2)cc1 (stereo unspecified) | 9 | 5
92 | N#CC1(NCCCCCCNC2(C#N)CCCCC2)CCCCC1 | 4 | 10
93 | O=C(CN1CCCCCC1=O)Nc1ccc(-c2ccccc2)cn1 | -2 | -4
94 | CC1(C(=O)NCc2ccc3c(c2)OCO3)CCN1C(=O)c1ccccc1 (stereo unspecified) | 12 | 9
95 | CCc1c(C)nn(-c2ccc(C(=O)Nc3ccccc3C(C)C)cc2)c1C | -9 | -14
96 | CCCc1nc(N2CC(OCc3ccccc3)C2)c2cnn(C)c2n1 | 2 | 0
97 | CCC(C(=O)N1CCN(C(=O)CCCSc2nnc(Cc3ccccc3)n2-c2ccc(Cl)c(Cl)c2)CC1C)c1ccccc1 (stereo unspecified) | -9 | -1
98 | Cc1cc(=O)[nH]c(-n2nc(C)cc2NC(=O)C2CCCCC2)n1 | 8 | 3
99 | c1ccc(Cc2nnc(SCc3cn4ccccc4n3)n2-c2ccccc2)cc1 | -6 | -7
100 | C=C(C)COc1ccc(-c2nc(N)ncc2-c2ccccc2)c(O)c1 | 1 | -4
101 | CN1C(=O)CC(C(=O)Nc2ccccc2F)SC1=Nc1cccc(Cl)c1 (stereo unspecified) | 1 | -1
102 | c1ccc(OCc2nc(CNCCN3CCOCC3)cs2)cc1 | 21 | 25
103 | Cc1n[nH]c(C)c1Cc1nncn1-c1cccc(C(F)(F)F)c1 | 14 | 5
104 | Cc1cccc(C(=O)N2CCC(N3CCCC(C(=O)N4CCOCC4)C3)CC2)n1 (stereo unspecified) | 5 | 3
105 | CCN(CC)S(=O)(=O)c1ccc2c(c1)nc(SCc1ccccc1C#N)n2C(C)C | -6 | -8
106 | COc1ccc(OC)c(NC(=O)C2(C)CCN2CCOc2ccc(C)cc2)c1 (stereo unspecified) | 4 | 2

High-throughput results: PubChem BioAssay, Fisher Drug Discovery Resource Center

Some of the compounds tested (hit frequency here may not be typical).
